YopH inh: YopH tyrosine phosphatase inhibitors, primary screen, biochemical, fluorescence Ex485/Em525; inhibition, %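 (about 10 µM by stock and volumes)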; 0.16% of 140,000 active;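 active means inhibition of 50% or more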;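 further: controls were vehicle for no effect and minimum signal wells for full effect; inactives centre near -20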
RecA splice inh: Mtb RecA intein splicing inhibitors, primary screen, biochemical, fluorescence, HTS; 0.75% of 290,000 active; Protein RecA (Mycobacterium tuberculosis (strain ATCC 25618 / H37Rv)), P9WHJ3; inhibition, %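 (about 9 µM by stock and volumes)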; cell-free RecA intein splicing; in the data active means inhibition above about 30%; inconclusive means no clear call, values can overlap the other calls;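 further: 0% = vehicle wells and 100% = reference inhibitor control wells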
Target sequence (P9WHJ3 whole entry, looked up, canonical isoform): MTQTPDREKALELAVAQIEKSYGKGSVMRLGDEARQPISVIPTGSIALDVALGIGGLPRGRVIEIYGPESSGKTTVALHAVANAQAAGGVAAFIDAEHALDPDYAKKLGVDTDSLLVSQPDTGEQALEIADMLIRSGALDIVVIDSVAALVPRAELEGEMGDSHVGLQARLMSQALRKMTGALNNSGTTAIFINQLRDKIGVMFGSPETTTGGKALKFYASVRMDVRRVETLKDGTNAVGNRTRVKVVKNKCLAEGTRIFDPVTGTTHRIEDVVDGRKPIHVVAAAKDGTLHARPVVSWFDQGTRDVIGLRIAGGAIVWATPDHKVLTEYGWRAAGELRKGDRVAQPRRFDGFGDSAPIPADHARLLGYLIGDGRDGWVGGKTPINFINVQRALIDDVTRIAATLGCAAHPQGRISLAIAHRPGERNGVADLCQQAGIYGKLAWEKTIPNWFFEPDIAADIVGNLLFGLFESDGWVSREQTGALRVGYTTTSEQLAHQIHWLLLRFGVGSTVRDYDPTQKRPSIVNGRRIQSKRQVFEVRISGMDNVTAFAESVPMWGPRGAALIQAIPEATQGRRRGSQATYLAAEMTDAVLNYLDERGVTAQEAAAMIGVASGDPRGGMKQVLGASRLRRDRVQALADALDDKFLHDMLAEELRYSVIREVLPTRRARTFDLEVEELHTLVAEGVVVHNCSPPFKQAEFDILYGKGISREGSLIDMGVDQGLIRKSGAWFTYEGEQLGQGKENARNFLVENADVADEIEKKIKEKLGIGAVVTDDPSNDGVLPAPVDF
Mtb growth: M. tuberculosis H37Rv growth inhibitors, H37Rv strain (AID 1626); M. tuberculosis H37Rv growth inhibition; higher % means a stronger effect; inhibition, % at 10 µM; hits with a dose series show IC50 in µM; 0.95% of 220,000 active;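 active means confirmed in a dose series; inconclusive means inhibition above 80% but not taken into the dose series; inactive means below 80% or under 30% at every dose of the series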;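 further: bacteria incubated seven days before Alamar blue readout; 0% = bacteria only wells and 100% = bacteria with antibiotic wells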
Arbovirus anti: antivirals against arbovirus infection, primary screen, cell-based, full library, 10K replicate subset. arbovirus infection cell-based antiviral screen. inhibition, % at 10 µM. 0.37% of 200,000 active. AID 1251, 2008;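 active means inhibition from about 30%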;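 further: bluetongue infection of BSR cells; cell survival read as ATP light after 72 h; 0% = infected wells without compound and 100% = uninfected wells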
Mtb bLac sens: beta-lactam sensitization of Mtb H37Rv, H37Rv; M. tuberculosis H37Rv growth with meropenem, percent inhibition; hits of this screen are not shown here; AID 434955, 2010; inhibition, % at 25 µM; 0.27% of 330,000 active;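 active means about 74% or more and at least 40 points above the plate without the antibiotic, then above 30% in a dose series; inconclusive means first-round hits that could not be retested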;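 further: growth measured after seven days incubation then overnight dye step; 0% = bacteria only wells and 100% = bacteria with antibiotic; twin plates without the antibiotic show which effects depend on it; some results filed as inactive read as strong as hits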
Arbovirus anti repeat: second read-out of Arbovirus anti, no call of its own (marks repeat the call); inhibition, %; measured here: 10K subset replicate screen; many hits read low in the repeat;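 first of two repeat runs on a subset; 0% = infected and 100% = uninfected wells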
An asterisk follows results filed as active; ? = inconclusive; / = not tested or not shown. The list is partial; count on the stated rates, not on these rows.

SMILES | YopH inh | RecA splice inh | Mtb growth | Arbovirus anti | Mtb bLac sens | others
Cc1cc(=O)[nH]c(SCC(=O)Nc2nc3c(s2)CCCC3)n1 | 11 | 0.7 | -3% | 15 | -1
N#Cc1cnn(-c2cccc(Cl)c2)c1-n1cccc1 | / | 4.1 | 2% | / | -3
Cc1nc(SCC(=O)N2CCCCCC2)[nH]c(=O)c1C | / | 1.2 | / | / | -1
N#C/C(=C\c1cn(CC(=O)O)c2ccccc12)C(=O)NCc1ccccc1 | / | -2.7 | / | / | -6
COC(=O)c1ccccc1NC=C1C(=O)OC2(CCCCC2)OC1=O | -27 | -0.4 | / | 3 | 5
CCc1ccc2nc(N3C(=O)C(O)=C(C(=O)c4ccco4)C3c3cccs3)sc2c1 (stereo not given) | -31 | 6.8 | -18% | 13 | 91
Cc1cc(N2C(=O)C(O)=C(C(=O)c3ccco3)C2c2ccccc2F)no1 (stereo not given) | / | -0.4 | / | / | -4
CC1C(c2ccccc2)C(C#N)(C#N)C2(C#N)C(=O)NC1(N)C2C (stereo not given) | -39 | -1.0 | -1% | 2 | 0
CCOC(=O)Nc1ccc2c(c1)N(C(=O)CCN(CC)CC)c1ccccc1CC2 | / | 1.9 | / | / | -14
COc1ccccc1C(=O)Nc1ccc(N2CCN(C(C)=O)CC2)cc1 | / | -1.1 | -6% | -1 | 3
CC(=O)NCCNC(=O)c1cccc(NS(=O)(=O)c2ccc3c(c2)OCCO3)c1 | / | 1.6 | / | / | -7
Cc1ccc(-n2c(C)cc(/C=N/NC(=O)CC3(C)OCCO3)c2C)cc1 | -8 | -2.9 | 0% | 2 | 44
O=S(=O)(Nc1ccc2nc(C(F)(F)F)[nH]c2c1)c1ccccc1 | -52 | 6.4 | -5% | 6 | 1 | Arbovirus anti repeat=12
Cn1c(NC(=O)c2ccco2)c(-c2ccccc2Cl)c(=O)c2ccccc21 | -2 | -0.5 | -3% | 4 | 8
COC(=O)COC(=O)CC(CC(N)=O)c1ccccc1 (stereo not given) | -44 | 1.9 | 5% | 0 | 6 | Arbovirus anti repeat=4
O=C(NNC(=O)c1ccc2ccccc2c1O)NC1CCCCC1 | / | -6.5 | / | / | -3
CCOC(=O)/C(C#N)=C1/C=CN(Cc2ccccc2)C=N1 | -46 | -1.7 | -3% | -29 | 0
CN(c1ccccc1C(=O)Nc1cccc(Cl)c1Cl)S(C)(=O)=O | -2 | -0.9 | -1% | -1 | -1
O=C(Nc1cccc(Cl)c1N1CCCC1)c1cc2ccccc2o1 | -10 | 1.0 | 10% | -34 | 82
Cc1cccc(Nc2nc3c(S(=O)(=O)c4ccccc4)nnn3c3ccccc23)c1C | -35 | -2.9 | 5% | -3 | 7
CCCN(C(=O)c1cc(S(=O)(=O)N2CCCCC2)ccc1Cl)C1CCS(=O)(=O)C1 (stereo not given) | / | 0.3 | -1% | / | -9
O=C1CCC(C(=O)OCc2c(Cl)cccc2Cl)N1 (stereo not given) | -18 | 0.6 | -7% | 5 | 0
O=C(NNC1=C(C(=O)C(F)(F)F)CCC1)c1ccc(Cl)cc1 | -7 | 25 | 1% | -17 | 39
O=C(COC(=O)c1ccc(F)c(S(=O)(=O)N2CCOCC2)c1)NCc1ccco1 | / | 1.6 | / | / | -2

By substructure: the entries above with an aryl thioether with sulfur outside any ring (two)
SMILES | YopH inh | RecA splice inh | Mtb growth | Arbovirus anti | Mtb bLac sens | others
Cc1cc(=O)[nH]c(SCC(=O)Nc2nc3c(s2)CCCC3)n1 | 11 | 0.7 | -3% | 15 | -1
Cc1nc(SCC(=O)N2CCCCCC2)[nH]c(=O)c1C | / | 1.2 | / | / | -1

(further entries)
SMILES | YopH inh | RecA splice inh | Mtb growth | Arbovirus anti | Mtb bLac sens | others
COc1ccc(C(=O)Oc2cccc3cccnc23)cc1[N+](=O)[O-] | / | -15 | 4.1µM* | 3 | 100
CC1(C)CC2CC(C)(CN2C(=S)Nc2ccccc2)C1 (stereo not given) | / | 0.4 | 0% | 3 | -9
CCCc1cc(=O)[nH]c(SCC(=O)c2ccc3c(c2)NC(=O)CO3)n1 | / | 0.2 | -9% | / | -7
CC1CCCCC1N1CCN(C(=O)c2cccc(F)c2)CC1 (stereo not given) | -23 | -0.7 | 0% | 1 | -2
Cc1ccc(NC(=O)N/C=C/c2ccc(Cl)cc2)cc1 | 6 | 0.0 | / | 1 | 3
CCOc1ccc(CNC(=O)CCCN2C(=O)C(c3ccccc3)Oc3cccnc32)cc1 (stereo not given) | / | -1.9 | / | / | 0
O=C1N/C(=N\S(=O)(=O)Cc2ccccc2)S/C1=C/c1cc([N+](=O)[O-])ccc1O | / | 2.1 | -15% | / | -9
COc1ccc(CC(=O)NNS(=O)(=O)c2ccccc2[N+](=O)[O-])cc1 | / | -1.1 | / | / | -3
COc1ccc(-c2cc(C(=O)NCCN3CCOCC3)c3ccccc3n2)c(OC)c1 | -19 | 0.1 | -6% | 2 | 7
CSc1ccc(C2CC(=O)Nc3c2c(=O)n(C)c(=O)n3C)cc1 (stereo not given) | / | -1.0 | -3% | / | 3
O=C(CSc1n[nH]c(=O)n1C1CC1)Nc1ccccc1 | / | 0.8 | / | / | -7
CCCC(=O)N(CCN(C(=O)CCC)c1ccccc1)c1ccccc1 | -1 | 0.4 | -6% | 1 | 7
c1ccc2c(c1)CCc1snnc1-2 | / | -3.1 | / | / | 6
CC(C)c1ccc(NC2=CC(=O)CC(C)(C)C2)cc1 | / | 0.3 | / | / | 3
CCc1cc(C(=O)O)c(NC(=O)c2cc(OC)c(OC)c(OC)c2)s1 | / | -1.2 | 4% | 76* | 5
COc1cc(C2c3c([nH]c(=O)[nH]c3=O)Nc3ccc4ccccc4c32)ccc1O (stereo not given) | / | / | -1% | 3 | -1
Cc1cccc(-c2nnc3sc(-c4ccccc4C)nn23)c1 | -21 | 4.2 | 12% | -1 | 99
COC(=O)c1ccc(Nc2nc(C)cc(C)n2)cc1 | -6 | 3.5 | 8% | -3 | 4
CCN(CC)C(C(=O)NC1CCCCC1)c1ccc(C)cc1 (stereo not given) | / | 1.0 | -7% | -2 | -7
C/C(=N\OC(=O)c1ccc(F)cc1)c1sc(-c2ccccc2)nc1C | -25 | 2.6 | 16% | -3 | 70
Cc1cccc(SCc2noc(C(=O)NC(C)C)c2C(=O)O)c1 | -112 | -2.5 | -10% | 2 | -10
COc1ccc2nc(N3CCCC(C(=O)NCCCN4C(C)CCCC4C)C3)sc2c1 (stereo not given) | / | -1.5 | / | / | -3
CC1Nc2nc(N(C)C)[nH]c(=O)c2NC1C (stereo not given) | -21 | / | -3% | 11 | 3
O=c1[nH]c(=O)n(-c2cc(Br)c(O)c(Br)c2)cc1Br | / | 2.5 | / | / | 2

Part of the list above in order of molar mass, rising:
SMILES | YopH inh | RecA splice inh | Mtb growth | Arbovirus anti | Mtb bLac sens | others
c1ccc2c(c1)CCc1snnc1-2 | / | -3.1 | / | / | 6
CC1Nc2nc(N(C)C)[nH]c(=O)c2NC1C (stereo not given) | -21 | / | -3% | 11 | 3
CC(C)c1ccc(NC2=CC(=O)CC(C)(C)C2)cc1 | / | 0.3 | / | / | 3
Cc1cccc(-c2nnc3sc(-c4ccccc4C)nn23)c1 | -21 | 4.2 | 12% | -1 | 99
C/C(=N\OC(=O)c1ccc(F)cc1)c1sc(-c2ccccc2)nc1C | -25 | 2.6 | 16% | -3 | 70
CCc1cc(C(=O)O)c(NC(=O)c2cc(OC)c(OC)c(OC)c2)s1 | / | -1.2 | 4% | 76* | 5
COc1cc(C2c3c([nH]c(=O)[nH]c3=O)Nc3ccc4ccccc4c32)ccc1O (stereo not given) | / | / | -1% | 3 | -1

Other records follow:
SMILES | YopH inh | RecA splice inh | Mtb growth | Arbovirus anti | Mtb bLac sens | others
O=c1ccc2cc(S(=O)(=O)N3CCN(c4ccccc4)CC3)ccc2o1 | -29 | -2.2 | 10% | 8 | 3
CCC(C)NS(=O)(=O)c1ccc(OCC(=O)N2CCN(CC)CC2)cc1 (stereo not given) | 19 | -0.7 | 7% | 6 | -6
O=C(O)c1cccc(CSc2nnc(-c3ccco3)o2)c1 | -21 | 1.1 | -12% | -3 | 11
Cc1nnc(NC(=O)c2sc3ccccc3c2Cl)s1 | -26 | 4.9 | 43% | 2 | 71
COc1ccccc1C(=O)NCC(=O)N/N=C/c1cccc(Cl)c1 | / | 0.1 | -1% | 0 | 1
Cc1cc(C(=O)COC(=O)/C=C/c2cccc(F)c2)c(C)n1C | / | 0.2 | -2% | 9 | 1
COc1ccccc1CN1CCN(Cc2ccc(Cl)cc2)CC1 | / | 0.6 | 7% | 13 | -4
CCCCOc1ccc(N(CC(=O)NCCOC)C(=O)CCC(=O)Nc2ccccn2)cc1 | / | -3.7 | / | / | -1
O=C(Cn1ncc2c3ccccc3n(Cc3ccccc3)c2c1=O)NCCCN1CCCC1=O | / | 2.4 | / | / | 8
O=C(CNC(=O)C(c1ccccc1)c1ccccc1)N/N=C\c1ccc2c(c1)OCO2 | -15 | -4.0 | -5% | -4 | 3
O=Cc1cn(Cc2c(F)cccc2Cl)nc1-c1ccccc1 | / | 3.6 | / | / | 1
COC(=O)Nc1c(C)n(C)n(-c2ccccc2)c1=O | -3 | -0.7 | -24% | 8 | -24
CCc1ccc(NC(=O)C(C)OC(=O)c2cc(=O)[nH]c3ccc(S(=O)(=O)Nc4ccc(F)cc4)cc23)cc1 (stereo not given) | / | -1.8 | 43% | -2 | 9
COc1cc(NC(=O)c2cc(-c3ccccc3Cl)on2)cc(OC)c1OC | / | -0.9 | / | / | 3
CN1CCN(C(=O)c2ccc(-n3cccc3)cc2)CC1 | -11 | -0.1 | -7% | -3 | 1
Cc1ccc(C(=O)NNC2=Nc3cccc4cccc2c34)cc1 | -25 | -1.8 | ? | -16 | 94
Cc1ccc(C(=O)COC(=O)CSc2cccc3cccnc23)c(C)c1 | -9 | / | 4% | / | 60
CSCCC(N=C1NS(=O)(=O)c2ccccc21)C(=O)N1CCCC(C(N)=O)C1 (stereo not given) | / | -2.0 | / | / | -3
O=c1[nH]c2ccc(Cl)cc2c(-c2ccccc2)c1N1CCN(CCO)CC1 | 4 | 3.4 | 5% | -24 | /
Nc1c(Cl)cc(C2=NCCn3c2c2ccccc2[n+]3[O-])cc1Cl | / | 0.8 | / | / | 12
O=C(Cn1cnc2c(nnn2-c2ccccc2)c1=O)N1CCCc2ccccc21 | -16 | 0.5 | 7% | -3 | -8 | Arbovirus anti repeat=-4
O=C(NCCS(=O)(=O)NCCc1ccccc1)c1ccccc1 | / | 1.1 | / | / | -11
OC1/C(=C/c2ccc(C(F)(F)F)cc2)N2CCC1CC2 (stereo not given) | / | -0.2 | 1% | 2 | 1
CNC(=S)NCCc1cc2c(OC)ccc(OC)c2[nH]c1=O | / | -4.2 | 0% | -1 | 5
CC(Oc1ccc2c(-c3ccccc3)cc(=O)oc2c1)C(=O)NCC(O)c1ccccc1 (stereo not given) | / | -0.7 | / | / | 0
O=C(C/C=N/OCc1ccccc1F)c1cnc(-c2ccc(Cl)cc2)s1 | -34 | -0.7 | -4% | 5 | 85
COc1ccc(-c2nc(C#N)c(NCc3ccc(C)cc3)o2)cc1OC | -29 | 0.3 | 3% | -5 | 13
O=C(CSc1nnc(-c2ccccc2O)n1Cc1ccccc1)NNC(=O)c1ccccc1O | -9 | -1.9 | 9% | -32 | 1
Cc1nn(CC(=O)Nc2cc(S(=O)(=O)N(C)C)ccc2Cl)c(C)c1[N+](=O)[O-] | -25 | 1.3 | -5% | 3 | -6
COCCCNC(=O)C1CCN(c2ncccn2)CC1 | -20 | -1.3 | -9% | 11 | 2
Clc1ccc2nc3ccccn3c2c1 | -32 | 0.3 | -1% | -2 | 81 | Arbovirus anti repeat=8
COc1ccc(NC(=O)C2CCN(C(=O)c3cccs3)CC2)c(OC)c1 | -41 | 1.8 | 2% | 2 | -7
COC(=O)c1cccc(COC(=O)c2ccccc2NC(=O)c2ccco2)c1 | 6 | -1.7 | -8% | -3 | 18
CC(O)[C@H]1CNC(=O)C(=O)N1CCC12CC3CC(CC(C3)C1)C2 (stereo not given in full) | / | -2.6 | -1% | / | -3
CC(=O)c1c(C)[nH]c(C(=O)N2CC(C)CC(C)C2)c1C (stereo not given) | / | 3.0 | / | / | 3
CCCCCCc1c(C)[nH]c2nc3ccccc3n2c1=O | / | -1.8 | / | / | 3
CCOc1ccccc1NC(=O)c1cc(CC(C)C)oc1C | 6 | 6.6 | -13% | 8 | 26
Cc1ccc(C)n1-c1sc2c(c1C#N)CCCC2 | -17 | -2.2 | 4% | -6 | -2
CCC(Sc1ncnc2c1c(-c1ccccc1)cn2-c1ccc(OC)cc1)C(=O)OC (stereo not given) | -15 | 0.4 | / | -2 | 34
